Screens as filed in PubChem.
YopH inh: YopH tyrosine phosphatase inhibitors, primary screen, biochemical, fluorescence Ex485/Em525 | inhibition, %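 (about 10 µM by stock and volumes)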 | YopH tyrosine phosphatase [Yersinia enterocolitica] | 140,000 compounds, 0.16% hits;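 active means inhibition of 50% or more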;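 further: controls were vehicle for no effect and minimum signal wells for full effect; inactives centre near -20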
Mtb betalactam: beta-lactam sensitization of Mtb H37Rv, H37Rv | M. tuberculosis H37Rv growth with meropenem, percent inhibition; hits of this screen are not shown here | AID 434955, 2010 | 330,000 compounds, 0.27% hits | inhibition, % at 25 µM;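 active means about 74% or more and at least 40 points above the plate without the antibiotic, then above 30% in a dose series; inconclusive means first-round hits that could not be retested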;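 further: growth measured after seven days incubation then overnight dye step; 0% = bacteria only wells and 100% = bacteria with antibiotic; twin plates without the antibiotic show which effects depend on it; some results filed as inactive read as strong as hits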
Arbovirus inh: antivirals against arbovirus infection, primary screen, cell-based, full library, 10K replicate subset; arbovirus infection cell-based antiviral screen; 200,000 compounds, 0.37% hits; inhibition, % at 10 µM; AID 1251, 2008;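 active means inhibition from about 30%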;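 further: bluetongue infection of BSR cells; cell survival read as ATP light after 72 h; 0% = infected wells without compound and 100% = uninfected wells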
Mtb H37Rv: M. tuberculosis H37Rv growth inhibitors, H37Rv strain (AID 1626) | one-dose inhibition, % at 10 µM; IC50 in µM for titrated hits | M. tuberculosis H37Rv growth inhibition; higher % means a stronger effect | 220,000 compounds, 0.95% hits;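 active means confirmed in a dose series; inconclusive means inhibition above 80% but not taken into the dose series; inactive means below 80% or under 30% at every dose of the series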;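 further: bacteria incubated seven days before Alamar blue readout; 0% = bacteria only wells and 100% = bacteria with antibiotic wells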
RecA intein inh: Mtb RecA intein splicing inhibitors, primary screen, biochemical, fluorescence, HTS; Protein RecA (Mycobacterium tuberculosis (strain ATCC 25618 / H37Rv)), P9WHJ3; cell-free RecA intein splicing; inhibition, %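 (about 9 µM by stock and volumes)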; 290,000 compounds, 0.75% hits; in the data active means inhibition above about 30%; inconclusive means no clear call, values can overlap the other calls;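 further: 0% = vehicle wells and 100% = reference inhibitor control wells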
Target sequence (P9WHJ3 whole entry, looked up): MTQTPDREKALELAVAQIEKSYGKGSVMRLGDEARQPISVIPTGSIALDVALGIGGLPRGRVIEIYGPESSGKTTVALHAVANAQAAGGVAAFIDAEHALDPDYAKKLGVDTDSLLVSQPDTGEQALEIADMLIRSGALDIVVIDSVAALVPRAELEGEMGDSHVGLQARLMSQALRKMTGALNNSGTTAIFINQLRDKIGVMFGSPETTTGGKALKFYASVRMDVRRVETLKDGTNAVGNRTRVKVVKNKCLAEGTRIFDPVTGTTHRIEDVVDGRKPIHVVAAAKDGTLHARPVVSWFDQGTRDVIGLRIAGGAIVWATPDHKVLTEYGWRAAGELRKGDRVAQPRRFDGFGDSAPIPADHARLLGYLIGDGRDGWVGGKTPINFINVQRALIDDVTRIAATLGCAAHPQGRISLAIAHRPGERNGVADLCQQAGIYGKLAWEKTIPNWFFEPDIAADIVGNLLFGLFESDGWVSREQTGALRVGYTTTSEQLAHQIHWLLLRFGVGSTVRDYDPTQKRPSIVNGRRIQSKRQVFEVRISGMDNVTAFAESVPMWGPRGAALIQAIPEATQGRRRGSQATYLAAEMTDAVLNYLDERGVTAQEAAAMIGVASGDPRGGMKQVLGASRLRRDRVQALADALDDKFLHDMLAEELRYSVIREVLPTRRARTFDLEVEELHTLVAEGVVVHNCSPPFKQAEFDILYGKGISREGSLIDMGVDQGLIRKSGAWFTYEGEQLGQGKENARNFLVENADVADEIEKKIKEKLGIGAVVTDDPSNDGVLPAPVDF
Arbovirus inh repeat: also measured in Arbovirus inh; calls as there; inhibition, %; measured here: 10K subset replicate screen; many hits read low in the repeat;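 first of two repeat runs on a subset; 0% = infected and 100% = uninfected wells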
Active calls of the source: *; ? = inconclusive; / = not tested or not shown.

SMILES	YopH inh	Mtb betalactam	Arbovirus inh	Mtb H37Rv	RecA intein inh	others
C#CCOCCOCCOCCNc1nc(N2CCN(C(=O)[C@H](C)n3cc(CCCN=C(N)N)nn3)CC2)nc(N2CCN(C(=O)[C@H](CCCCN)n3cc(CCCC)nn3)CC2)n1	-14	/	0	/	/
CCCCN(C(=O)CSCC(=O)Nc1ccc(OC)cc1)c1c(N)n(Cc2ccccc2)c(=O)[nH]c1=O	/	-3	/	/	-0.9
Cc1ccccc1NS(=O)(=O)c1ccc(NS(=O)(=O)c2cccs2)cc1	/	1	/	/	0.7
Cc1nc(NC(=O)c2cc3ccccc3o2)ccc1Br	/	?	/	/	1.1
COC(=O)CCc1cccc(CCC(=O)OC)c1	/	-3	/	/	-1.3
NC(=O)NC(Cc1ccccc1)c1ccccc1 (stereo unspecified)	-24	/	9	-6%	-0.3
CC(=O)N(C)c1ccc(OCC(O)Cn2c3ccc(Cl)cc3c3cc(Cl)ccc32)cc1 (stereo unspecified)	-13	8	-24	0%	23
COc1ccc(OC)c(NC(=O)c2nnn(Cc3ccccc3C)c2N)c1	-6	16	-31	4%	12
CCN1CCN(S(=O)(=O)c2ccc(Cl)nc2)CC1	14	-4	-2	-1%	-2.6
COc1ccc(OC)c(NC(=O)N2CCc3ccccc3C2)c1	/	-2	/	/	0.1
CNC(=O)C1CC(=O)N(Cc2ccc(OC)c(OC)c2)C(=Nc2ccc(OC)cc2)S1 (stereo unspecified)	-13	-15	-6	4%	-5.9
Cc1cccc(NC(=O)C2C(c3ccccc3)C2(Cl)Cl)c1 (stereo unspecified)	/	12	-29	-3%	15
CC(C)C(c1nnnn1Cc1ccc2c(c1)OCO2)N1CCN(c2ccccc2)CC1 (stereo unspecified)	-29	2	0	-7%	0.3
Cc1nnc(-c2cccc(C(F)(F)F)c2)nc1N1CCOCC1	/	-8	1	5%	-3.7
N#C/C(=C/c1ccc(N2CCCCCC2)o1)c1ccc(Cl)cc1	-5	73	-43	-4%	5.1
CCN(C(=S)Nc1cc(S(=O)(=O)N2CCOCC2)ccc1Cl)c1cccc2ccccc12	-27	1	-24	-10%	24
O=C(CCN1C(=O)C2CCCCC2C1=O)Nc1nc(-c2ccc(F)c(F)c2)cs1 (stereo unspecified)	/	97	14	48µM*	1.4
Cc1ccc(CNC(=O)CCCCCNC(=O)N2CCn3c2nc2ccccc23)cc1	/	-6	/	/	-1.6
Nc1nc2ccccc2n1CCOc1ccccc1Cl	-9	99	9	14%	2.3
COc1ccc(C(=O)Nc2nnc(SCC(=O)NCc3ccco3)s2)c(OC)c1	/	?	/	/	2.7

Of the compounds above, these have a Cl atom.
SMILES	YopH inh	Mtb betalactam	Arbovirus inh	Mtb H37Rv	RecA intein inh	others
CC(=O)N(C)c1ccc(OCC(O)Cn2c3ccc(Cl)cc3c3cc(Cl)ccc32)cc1 (stereo unspecified)	-13	8	-24	0%	23
CCN1CCN(S(=O)(=O)c2ccc(Cl)nc2)CC1	14	-4	-2	-1%	-2.6
Cc1cccc(NC(=O)C2C(c3ccccc3)C2(Cl)Cl)c1 (stereo unspecified)	/	12	-29	-3%	15
N#C/C(=C/c1ccc(N2CCCCCC2)o1)c1ccc(Cl)cc1	-5	73	-43	-4%	5.1
CCN(C(=S)Nc1cc(S(=O)(=O)N2CCOCC2)ccc1Cl)c1cccc2ccccc12	-27	1	-24	-10%	24
Nc1nc2ccccc2n1CCOc1ccccc1Cl	-9	99	9	14%	2.3

Further results
SMILES	YopH inh	Mtb betalactam	Arbovirus inh	Mtb H37Rv	RecA intein inh	others
Cc1cc(C)n(C(=O)c2ccc(Cl)c(F)c2F)n1	/	1	7	-9%	1.3
CCCCCCNC(=O)CCCCCNS(=O)(=O)c1ccc(OC)cc1	-13	4	-6	5%	-1.4
CC(=O)c1c(C)[nH]c(C(=O)Nc2ccc3c(c2)OCCO3)c1C	-8	-7	-1	-3%	2.2
CCSc1nnc(NC(=O)c2csc3c2CCCC3)s1	-33	1	-8	-12%	0.4
Cc1cc(NC(=O)CCC(=O)N(c2ccc(C)c(F)c2)C(C(=O)NC2CCCC2)c2ccco2)no1 (stereo unspecified)	/	5	/	/	2.2
CC(NC(N)=O)C12CC3CC(CC(C3)C1)C2 (stereo unspecified)	-9	-20	2	-5%	1.7
CCCCN(C(=O)c1cc(=O)[nH]c2ccccc12)c1c(N)n(CCC)c(=O)[nH]c1=O	/	-5	/	-1%	1.5
CCN(CC)C(=O)/C(NC(=O)c1ccccc1)=C(/Sc1ncccn1)c1ccccc1	-1	0	-6	-6%	0.4
CCCCCNC(=O)C(C)Sc1ccc(Cl)cc1 (stereo unspecified)	-12	-3	0	-4%	3.2
Cc1ccc(-c2oc3ccccc3c(=O)c2OCC(=O)O)cc1	/	5	0	0%	1.3
CC1CCN(CC(=O)c2cccc(C(F)(F)F)c2)CC1	/	1	/	/	0.3
Cc1ccc(CC(=O)NCC(O)c2ccccc2)cc1 (stereo unspecified)	/	0	/	/	-0.6
COc1cc(C(=S)N2CCOCC2)ccc1OC(=O)Cc1ccc(F)cc1	-33	7	11	0%	1.7
Cc1ccc(-c2cccc(NC(=O)C3C(C(=O)O)[C@@H]4C=C[C@H]3C4)c2)o1 (stereo partly specified)	0	68	7	?	6.1
CCn1cc2c(c1-c1cccc(C)c1)c(=O)n(C)c(=O)n2C	-29	3	-4	-4%	-2.9
COc1ccc(-n2nnc3c(SCC(=O)OCc4ccccc4)ncnc32)cc1	-1	99	20	?	-1.3
COc1ccc(C(CC(=O)Nc2nccs2)C(C)C)cc1 (stereo unspecified)	/	4	/	/	0.3
CNCCCCOc1ccc(C(C)(C)C)cc1Cl	/	-4	-33	4%	-2.1
C/C=C/C(=O)NCCc1ccc(OC)c(OC)c1	/	1	3	3%	-2.5
COCCn1c(SCc2cccc([N+](=O)[O-])c2)nc2ccccc2c1=O	/	9	/	/	5.1
C=CCN(CC=C)C(=O)c1ccccc1NC(=O)c1ccccc1C	6	12	-4	5%	0.8
COc1cc(SC)ccc1C(=O)NCCOc1ccc(F)cc1	-13	9	-1	1%	2.4
COc1ccc(NC(=O)CSC2=NCCN2)cc1	/	94	2	>100µM*	-1.0
S=C(NCc1ccc(Cl)cc1)NCc1ccccn1	/	0	-4	4%	5.2
COc1ccc(/C=C/c2nc(-c3ccccc3)cc(=O)[nH]2)cc1	/	94	/	2%	-11
Cc1csc(SCC(=O)NC(=O)NC(C)C)n1	/	-2	19	8%	-5.0
Cc1ccccc1NC(=O)CSc1nc2n(n1)CCCCC2	-19	3	4	2%	0.0
CCOc1ccccc1NC(=O)CSC1=C(C#N)C(c2ccco2)C(C(=O)Nc2nc3ccccc3s2)=C(C)N1 (stereo unspecified)	-28	90	12	49%	-5.0
O=C(C(=O)N1CCc2ccccc2C1)N1CCc2ccccc2C1	-24	-3	2	-4%	2.5
COc1ccc(CCNS(=O)(=O)c2cccc(C)c2)cc1OC	-8	-9	3	6%	/
CCOC(=O)c1c(NC(=O)C2CCCN(S(=O)(=O)c3ccccc3)C2)sc2c1CCCC2 (stereo unspecified)	-18	5	-6	5%	1.5
COc1ccc(CCNC(=O)CSc2nc(O)c(CC(C)C)c(=O)[nH]2)cc1OC	-31	3	8	-4%	-4.2
Cc1cc(N2CCC(C)CC2)nc2cccc(O)c12	-51	-1	0	7%	-2.8
O=C(COC(=O)c1ccccc1Nc1ccc(SC(F)F)cc1)NC1CC1	-33	5	26	9%	-2.0
CC(C)NC(=O)N1c2ccccc2Sc2ccccc21	/	1	/	/	1.0
CC(C)C(=O)Nc1ccc(N2CCN(c3ccc(F)cc3)CC2)cc1	/	-7	12	3%	-1.0
CC(=O)N1CC(=O)Nc2ccc(Cl)cc2C1c1ccccc1 (stereo unspecified)	/	12	/	/	0.6
NC1=NC(=O)/C(=C/c2ccccc2OS(=O)(=O)c2ccccc2)S1	8	11	1	22%	-6.6
O=C(O)c1cc(-c2ccc(N3CCOCC3)cc2)nn1-c1ccc(F)cc1F	2	-9	2	5%	2.1
CCC(=O)Nc1cccc(-c2cn3ccccc3n2)c1	-14	-8	-14	13%	1.5

Sorted by heavy-atom count (falling): four of the compounds above
SMILES	YopH inh	Mtb betalactam	Arbovirus inh	Mtb H37Rv	RecA intein inh	others
O=C(O)c1cc(-c2ccc(N3CCOCC3)cc2)nn1-c1ccc(F)cc1F	2	-9	2	5%	2.1
CC(C)C(=O)Nc1ccc(N2CCN(c3ccc(F)cc3)CC2)cc1	/	-7	12	3%	-1.0
CC(C)NC(=O)N1c2ccccc2Sc2ccccc21	/	1	/	/	1.0
Cc1cc(N2CCC(C)CC2)nc2cccc(O)c12	-51	-1	0	7%	-2.8

Remaining list, next part.
SMILES	YopH inh	Mtb betalactam	Arbovirus inh	Mtb H37Rv	RecA intein inh	others
COc1ccc2[nH]c(C)cc(=O)c2c1	-36	-12	6	-6%	-2.1
CCOn1c(=O)c(-c2ccc(OC)c(OC)c2)[n+]([O-])c2ccccc21	-6	-7	3	1%	-2.2
COc1cccc2c(=O)cc(C)n(CC(=O)Nc3ccc(C)c(C)c3)c12	15	6	11	7%	2.7
O=C1CC2(CC(c3ccc(Cl)cc3)=NO2)C(=O)N1c1ccccc1 (stereo unspecified)	/	-4	/	-15%	-0.6
O=C(c1cn2ccccc2n1)N1CCc2c([nH]c3ccccc23)C1c1ccccn1 (stereo unspecified)	/	1	0	3%	-0.6
CCn1nc(C)c(NC(=O)CCSc2nc(-c3ccco3)cc(C(F)(F)F)n2)c1C	5	2	-3	-16%	1.8
Cc1nc(-c2nc(-c3c(C(=O)NNC(=O)c4ccc(Cl)cc4)noc3C)cs2)cs1	/	95	/	?	2.9
O=C(NCC(c1ccco1)N1CCCC1)c1cccc(NS(=O)(=O)c2ccccc2)c1 (stereo unspecified)	/	7	/	/	0.0
COc1ccccc1OCCNC(=O)c1cccc(S(=O)(=O)N2CCN(C)CC2)c1	/	-18	/	/	0.9
CCOC(=O)c1c(CN2CCCCC2)oc2ccc(O)cc12	-27	-2	6	0%	1.6
CCCC(=O)Nc1c(-c2ccc(OC)cc2)c(=O)c2ccccc2n1C	-12	-3	4	-10%	-1.7
COc1ccc(-c2cc(C)no2)cc1S(=O)(=O)NCC1CCN(Cc2cc(C)ccc2C)CC1	/	40	/	/	2.5
N#C/C(=C\C1=C(N2CCOCC2)C(=C\c2ccc(Cl)cc2)/CC1)C(=O)Nc1ccccc1F	-11	11	-25	11%	1.1
c1ccc(Oc2ccc(-c3ccnc4ncnn34)cc2)cc1	/	3	1	13%	2.3
COc1ccc(CC(=O)Nc2ccc3nc(C)sc3c2)cc1OC	-18	-6	2	3%	-2.6
Cc1noc(C)c1COC(=O)CNC(=O)c1ccc(Cl)cc1	/	2	1	-5%	-2.3
CC(=O)Nc1ccc2c(c1)nc(CCNC(=O)c1ccccc1)n2C	5	11	0	-6%	0.7
COc1ccc(C(=O)CSc2nnc(-c3cc(C)cc(C)c3)o2)cc1	-20	-2	-3	13%	-0.8
CCCC(C(=O)Nc1ccc(S(=O)(=O)N2CCCC2)cc1)c1ccccc1 (stereo unspecified)	/	4	/	/	7.2
O=C(CSc1nnc(-c2ccccc2O)n1-c1ccccc1)Nc1cccc(C(=O)O)c1	/	-15	0	4%	-2.1
COc1ccc(C(=O)NC2CCN(C(=S)Nc3ccccc3)CC2)cc1	/	-2	2	-6%	-1.1
O=c1[nH]c(/C=C\c2cccs2)nc(O)c1[N+](=O)[O-]	/	0	1	-2%	0.8
CC(=O)c1ccc(N=Nc2c(C)[nH]n(-c3ccccc3)c2=O)cc1	/	6	/	/	2.9
Cc1cccc2cc(C#N)c(SCC(=O)NCC3CCCO3)nc12 (stereo unspecified)	43	25	-6	2%	2.0
CCCCn1c(/N=C/c2cc(OC)ccc2O)nc2ccccc21	-30	-13	12	7%	-0.5
COC(CNC(=O)c1ccc2c(c1)ncn2-c1cccc(F)c1)OC	/	-8	4	-7%	2.1
COc1cccc(-n2c(SCC(=O)Nc3ccc4c(c3)CCC4)nc3ccccc3c2=O)c1	-15	-6	6	15%	5.6
COc1cccc(CC(=O)OC(C)C(=O)Nc2ccc(Cl)cn2)c1 (stereo unspecified)	/	-2	/	/	2.7
CC(C)(CO)NC(=S)NCc1ccco1	/	-2	/	6%	-3.2
O=C1CC(N2CC=C(c3ccccc3)CC2)C(=O)N1c1ccc(F)cc1 (stereo unspecified)	7	-1	-1	1%	0.7	Arbovirus inh repeat=2
CCOc1cc([N+](=O)[O-])cc(/C=N/NC(=O)c2c(-c3ccccc3)noc2C)c1O	/	-3	/	/	1.8

An excerpt; rates above refer to the full screens.
